High-throughput results (PubChem)
gsp agonist = gsp mutant agonism | Potency, µM (titrated, usually from 76.9 µM), for inactives: top-dose activation (cAMP increase), actives largely listed as activators | 0.13% of 340,000 active | gsp mutant cells, cAMP HTRF, 30 min; control for the full effect not named in the record; active = well fitted activation curve with a large enough effect; inconclusive = small, poorly fitted or top-dose-only effect, or another doubt; inactive = no such curve, though single readings can be large or run the other way; cell line not stated here;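 also: phosphodiesterase inhibitor Ro 20-1724 added with compounds to block cAMP breakdown; potency is read from the fitted curve at half-maximal effect; nearly all actives have a fitted effect of over 60% in size; about a fifth of the inactives were tested at one dose only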
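Cells in DMEM/10% FBS with G418 were pretreated with compounds in DMSO plus […] (300 uM stock) for 30 min at 37C. cAMP was measured by HTRF (cAMP-d2 plus anti-cAMP antibody-K) after 30 min at room temperature.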
Sfp PPTase inh = blocks B. subtilis Sfp PPTase activity | Q9F4F7 | Biochemical Sfp PPTase activity, qHTS | Potency, µM, without a hit: max response, negative = inhibition, actives largely listed as inhibitors | 3.5% of 310,000 active | AID 1490; active = well fitted inhibition curve with a large enough effect; inconclusive = small, poorly fitted or top-dose-only effect, or another doubt; inactive = no such curve, though single readings can be large or run the other way;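 also: the enzyme is Sfp with the accession as filed and its product quenches rhodamine fluorescence; potency is read from the fitted curve at half-maximal effect; 0% = enzyme reaction without inhibitor and -100% = no enzyme wells; top concentration of the series not given in the record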
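Buffer: 50 mM Hepes-Na pH 7.6, 10 mM MgCl2, 0.01% Nonidet P-40, 0.01% BSA. Enzyme 15 nM, pre-exposed to compound 15 min; substrates then added and fluorescence change tracked over 30 min.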
Menin MLL FP FL = menin-MLL binding inhibition, fluorescein peptide; Fluorescence polarization, fluorescein-MLL peptide displacement from menin; FP activity change, % at 61.4 µM; 290,000 tested, under 10 active; AID 1766; inconclusive = falling polarisation curve, or a change in total fluorescence; inactive = total fluorescence flat and polarisation flat or rising; no compound was filed as active; the % refers to the polarisation; negative = inhibition;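 also: % of control where 0% means no effect; inhibitors lower the polarisation; unlabelled MLL peptide was the positive control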
PINK1 expr mod = changes PINK1 expression; AID 624263; 0.2% of 410,000 active; PINK1 immunofluorescence, high-content cytometry, 24 h; Potency, µM (titrated, usually from 76.6 µM), for inactives: at the top dose activation (PINK1 increase), most hits filed as activators; active = well fitted activation curve with a large enough effect; inconclusive = small, poorly fitted or top-dose-only effect; inactive = flat fitted curve, though single readings scatter; cell line not stated here;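 also: potency is read from the fitted curve at half-maximal effect; % of control where 0% means no effect; nearly all actives have a fitted effect of over 65% in size; a mitochondrial uncoupler was the plate control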
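Compound titrations (5 concentrations, 24 h) on a stable cell line; DMSO and CCCP controls. Endpoint: fixed-cell PINK1 immunofluorescence with mitochondrial, cell and nuclear markers, scanned by microplate cytometer.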
gsp antagonist = antagonizes gsp, the McCune-Albright syndrome mutation; gsp-mutant cells, cAMP HTRF, 30 min; control for the full effect not named in the record; Potency, µM (highest dose often 76.9 µM), for inactives: at the highest dose activity change, negative = inhibition, actives largely listed as inhibitors; 0.4% of 340,000 active; active = falling curve of any shape with a large fitted effect; inconclusive = falling curve, mostly with a smaller effect; inactive = flat or rising curve; cell line not stated here;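 also: intracellular cAMP measured with PDE inhibitor Ro 20-1724 present during compound exposure; potency is read from the fitted curve at half-maximal effect; % is scaled to controls: 0 for no effect and ±100 for the full control effect; nearly all actives have a fitted effect of over 65% in size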
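HTRF cAMP read-out (cAMP-d2 plus anti-cAMP antibody-K in lysis buffer, 30 min RT). Before lysis, cells are exposed to compounds with […] for 30 min at 37C in DPBS containing Ca/Mg, BSA and Tween 20.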
ClpP mod = qHTS Assay for Activators of ClpP | purified B. subtilis ClpP, FRET peptide cleavage, 20 min | Potency, µM (highest dose often 57.5 µM), without a hit: top-dose activity change, negative = active | 1.9% of 340,000 active | AID 651965, 2013; active = well fitted falling curve with a large enough effect; inconclusive = small, poorly fitted or top-dose-only effect; inactive = no such curve, though single readings can be large or run the other way; also: potency is read from the fitted curve at half-maximal effect; the source files actives as falling curves though it sought activators and does not explain the sign; nearly all actives have a fitted effect of over 65% in size; many hits overshoot -100%
Target sequence (P80244 whole entry, looked up): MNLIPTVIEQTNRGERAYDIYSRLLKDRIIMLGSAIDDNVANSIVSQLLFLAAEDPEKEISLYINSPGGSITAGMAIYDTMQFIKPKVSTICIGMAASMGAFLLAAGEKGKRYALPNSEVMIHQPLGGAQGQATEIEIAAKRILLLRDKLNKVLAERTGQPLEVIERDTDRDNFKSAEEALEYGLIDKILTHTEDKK
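Buffer: 100 mM Tris/HCl pH8, 100 mM KCl, 0.05% low protease BSA, 2.5% glycerol, 0.01% Tween-20. ClpP 10 microg/mL final; 20 min RT; delta FRET normalized to ADEP and DMSO controls.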
D2 agonist = activates the human D2 dopamine receptor | DiscoveRx PathHunter D2 beta-arrestin, luminescence, 90 min; 100% = 57 uM dopamine signal | activation, % (no concentration beside the values) | 0.084% of 360,000 active; in the data active = activation above about 40%; inconclusive = about 15% to 40%; inactive = below about 15%; also: compound concentration not given in the record; the text of the record calls up to 30% inactive
Target sequence (P14416 whole entry, looked up): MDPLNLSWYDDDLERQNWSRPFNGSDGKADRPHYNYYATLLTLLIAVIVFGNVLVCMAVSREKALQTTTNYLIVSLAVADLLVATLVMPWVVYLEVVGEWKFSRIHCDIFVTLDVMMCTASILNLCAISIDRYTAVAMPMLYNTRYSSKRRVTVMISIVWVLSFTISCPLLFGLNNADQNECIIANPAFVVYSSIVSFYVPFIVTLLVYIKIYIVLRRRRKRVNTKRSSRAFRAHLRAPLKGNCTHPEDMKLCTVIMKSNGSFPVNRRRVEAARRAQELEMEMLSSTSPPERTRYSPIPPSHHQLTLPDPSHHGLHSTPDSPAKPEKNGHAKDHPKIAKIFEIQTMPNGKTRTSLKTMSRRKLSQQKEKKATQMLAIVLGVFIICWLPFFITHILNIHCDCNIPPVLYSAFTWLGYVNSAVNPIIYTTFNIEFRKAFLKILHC
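Agonist mode: compounds alone added to overnight-plated D2 PathHunter cells for 90 min at 37 C, with 57 uM final dopamine (EC100) defining full response. Beta-arrestin recruitment detected by chemiluminescent reagent, read after 1 h at ambient temperature.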
The depositor's hits bear a star; u = inconclusive; x = not tested or not shown; & = joins results of further samples; [ ] = dose if it differs, or a comment.

SMILES	gsp agonist	Sfp PPTase inh	Menin MLL FP FL	PINK1 expr mod	gsp antagonist	ClpP mod	D2 agonist
S=c1[nH]nc(-c2cc(-c3ccsc3)n[nH]2)n1-c1ccccc1	u	-22%	0.2	-0.5%	-7%	-6.9%	8.9
CSc1ccccc1NC(=O)c1ccccn1	-4%[15.4 µM]	u	-8.6	4.8%	-6%	1.6%	-2.0
C#CCO[C@@H]1C[C@H](n2cnc3c(NC(=O)c4ccccc4)ncnc32)O[C@@H]1CO	x	17%	1.3	-0.7%	2%	0.4%	-3.0
Fc1ccc(CN2CCSCC2)cc1F	4%[15.4 µM]	-17%	-2.2	0.3%	2%	0.7%	0.5
COC(=O)c1coc(-c2ccc(C)cc2)c1C(=O)OC	17%	-3%	3.4	2.8%	-1%	-12%	-1.1
Cc1c(CCC(C)C)c(-n2ccnc2C)n2c(nc3ccccc32)c1C#N	-23%	4%	1.3	-0.4%	8%	-1.8%	1.6
COc1ccc(/C=C/C(=O)NC(=S)Nc2ccccc2)cc1OC	1%	0%	-3.4	12%	0%	x	2.2
CCOC(=O)C1=C(C)NC(=O)NC1c1ccc(OC(=O)c2ccco2)c(OC)c1 (stereo unspecified)	-41%	-1%	1.3	1.3%[38.3 µM]	-4%	0.1%	-1.6
CN(Cc1ccco1)c1ncnc2ccc(-c3cccc(C#N)c3)cc12	x	u	-1.9	0.5%	x	x	x
Cc1cc(NC(=O)CCC(=O)N(CC(=O)NCC2CCCO2)c2ccc(Cl)c(Cl)c2)no1 (stereo unspecified)	-1%[15.4 µM]	0%	6.7	2.0%	0%	0.1%	-6.9
Cc1ccc(Cn2c(N3CCN(C)CC3)nc3c2c(=O)[nH]c(=O)n3C)cc1	-4%[15.4 µM]	2%	0.9	0.4%	3%	-0.3%	-5.5
CC(C)(C)C1CCC(=O)C(C2(O)C(=O)Nc3ccccc32)C1 (stereo unspecified)	-26%	12%	0.3	0.3%[38.3 µM]	5%	-0.7%	-1.1
Cc1nc(NC(=O)COC(=O)c2ccc(CO)cc2)c(Cl)cc1Cl	9%[15.4 µM]	x	x	1.5%	8%	-27%	-7.0
Cc1ccccc1C(=O)NCC(=O)NCC1(N2CCOCC2)CCCCC1	-2%[15.4 µM]	x	x	-0.8%	13%	-0.3%	1.2
CC(=O)c1cccc(NC(=O)c2ccc(NS(=O)(=O)c3c(C)noc3C)cc2)c1	0%	10%	-1.6	0.7%	-3%	0.1%	-4.8
CCc1nc2ccc(C(=O)NCCCN3CCCC3=O)cn2c1N(CC)C(=O)NCCc1ccccc1	x	x	x	0.7%	x	-10%	-3.3
CCN(CC)CCNC(=O)C(Oc1ccccc1)Oc1ccccc1	1%	-5%	0.1	1.1%	9%	x	-3.1
Cc1cc(NC(=O)c2ccno2)no1	6%	16%	x	0.1%	14%	-21%	-2.0
O=[N+]([O-])c1ccccc1S(=O)(=O)N1CCSCC1	u	x	x	2.1%	8%	-0.3%	7.6
CCOc1ncccc1C(=O)OC(C)C(=O)Nc1ccc(Cl)cn1 (stereo unspecified)	-14%	x	x	10%	-7%	-2.0%	4.5
C/C(=N\NC(=O)c1ccc(-n2cnnn2)cc1)c1ccc(Cl)cc1	-6%	x	x	2.5%	2%	-1.8%	-2.1
Cc1ccccc1NC(=S)NNc1ncc(C(F)(F)F)cc1Cl	1%	-2%	-6.9	3.5%	-3%	-1.9%	-9.5
Cc1cc(C)cc(NC(=O)NC2CCCCCCC2)c1	7%	26%	x	4.3%	-8%	1.8%	-3.0
O=C(CSc1nc2ccccc2[nH]1)c1ccccc1F	-21%[15.4 µM]	1%	-2.3	1.6%	5%	x	-3.3
CCn1nc(C(=O)OCC(=O)Nc2ncc(Cl)c(C)c2Cl)c2ccccc2c1=O	-13%	2%	-1.2	-1.7%	5%	-11%	-2.6
Cc1ccc(C(C(=O)NC2CCCCC2)N(C(=O)c2csnn2)c2ccccc2F)o1 (stereo unspecified)	18%	2%	-5.4	1.9%	3%	x	4.4
O=C(C[n+]1cccc(Br)c1)c1ccc(-c2ccccc2)cc1	27%	19%	-1.9	1.5%	11%	-2.0%&-20%	-4.7
Cc1ccc(S(=O)(=O)N2CCCC2CNC(=O)C(=O)NCc2cccs2)cc1 (stereo unspecified)	10%	x	x	3.0%	-1%	0.8%	-2.8
Cc1cccc(C(=O)NCC(=O)NC(C)CCc2ccccc2)c1 (stereo unspecified)	29%	13%	x	-0.4%	-10%	-1.5%	-0.3
O=C1C(Cl)=C(O)C2(Cl)C(Cl)=C(Cl)C12Cl (stereo unspecified)	-27%	x	x	1.0%	-1%	x	2.5
Cc1csc(NC(=O)Nc2ccccc2[N+](=O)[O-])n1	13%	-7%	0.7	-1.1%	4%	x	u
NC(=O)NN=C1CCC(OCc2ccccc2)CC1CC(=O)O (stereo unspecified)	x	x	x	2.5%	x	-2.9%	-1.5
COC(=O)C(C)NS(=O)(=O)c1ccc(NC(C)=O)cc1 (stereo unspecified)	-30%[inhibitor]	10%	0.5	7.5%[38.3 µM]	3%	-1.5%	1.0
Cc1nc(NC(=O)c2ccccc2)sc1-c1csc(N)n1	-62%[inhibitor]	-17%	0.5	-0.4%	20%	-1.9%	8.4
O=C(NCc1ccccn1)c1ccc(OC2CCN(Cc3ccc(Cl)s3)CC2)cc1	23%	-2%	x	-0.4%	2%	2.3%	2.3
Cc1ccc(NC(=O)CNC2CCS(=O)(=O)C2)cc1C (stereo unspecified)	0%[15.4 µM]	-7%	4.0	1.7%	16%	x	1.5
NS(=O)(=O)c1ccc(CNC(=O)c2ccc(S(=O)(=O)C(F)F)cc2)cc1	14%[15.4 µM]	1%	-0.4	1.8%	3%	x	5.2
O=C(NC(Nc1ccc(F)cc1)(C(F)(F)F)C(F)(F)F)c1cccnc1	-8%[15.4 µM]	-2%	-3.8	1.1%	3%	-4.3%	-1.0
Cc1cc(C)c(C#N)c(SCc2cn3c(C)cccc3n2)n1	-4%	-3%	5.6	2.3%	9%	-1.1%	1.9
COc1ccc2c3c([nH]c2c1)C(C)N(CCC(=O)NN)CC3 (stereo unspecified)	-68%[inhibitor]	15%	-1.7	-1.1%	-3%	x	6.0
Cn1ncc(N=Cc2ccc([N+](=O)[O-])cc2)c1C(=O)Nc1ccccc1	-18%	-2%	-1.2	3.0%	-1%	x	-0.1
COc1cc(NC(=O)c2ccc(-c3c(C)noc3C)c3ccoc23)cc(OC)c1OC	x	x	x	14%	x	-2.5%	11
CCCn1c(N)nc2ccccc21	5%	3%	0.2	-0.7%	5%	1.4%	-2.5
COc1ccccc1CNc1ccnc(-c2ccoc2)n1	x	u	u	3.5%	x	x	x
Cc1nn(Cc2ccc(Cl)cc2Cl)c(C)c1NC(=O)C1C2CCC(O2)C1C(=O)O (stereo unspecified)	4%	-3%	-0.5	0.0%	2%	-2.4%	0.1
CCC(=O)Nc1ccc(C(=O)Nc2cc(C)on2)cc1	16%	12%	7.0	-0.8%	10%	1.2%	-2.8
C=CCN(c1ccccc1)S(=O)(=O)c1ccc(Cl)c(C(=O)OCC(=O)N(C)C2CCS(=O)(=O)C2)c1 (stereo unspecified)	-20%[15.4 µM]	10%	-0.9	1.3%	-10%	-2.1%	-0.8
Cc1nc2c3c4c(sc3n3c(SCC(=O)NCc5ccco5)nnc3n2n1)COC(C)(C)C4	u	-4%	0.7	19%	-4%	-0.2%	-2.3
CCOC(=O)N1CCN(C(=O)CN(Cc2ccc(Cl)cc2)S(=O)(=O)c2ccccc2)CC1	-9%	5%	-1.8	-3.2%	-6%	0.3%	-2.0
Cc1cc2c(cc1S(=O)(=O)Nc1cccc(C)c1C)OCC(=O)N2	-23%	6%	-1.7	2.0%	7%	-1.8%	-4.5
Cc1ccc(NS(=O)(=O)c2ccc(-n3cccn3)cc2)cc1F	-15%	14%	x	3.6%	-1%	-0.1%	8.5
O=C(COc1ccccc1)Nc1nc2ccccc2[nH]1	13%	21%	0.2	-4.1%	-3%	-0.4%	-0.7
Cc1ccccc1OCC(=O)OCn1nnc2ccccc2c1=O	10%[15.4 µM]	-6%	2.9	0.2%	8%	x	-1.7
Cc1ccc(SCC(=O)N(C)CC(=O)Nc2cccc(F)c2)cc1	25%	x	x	2.6%	-14%	0.7%	-5.5
CCC(NC(=O)c1ccccc1NC(=O)c1ccccc1)C(=O)OC (stereo unspecified)	-1%	-9%	-2.5	1.8%	u	0.8%	-3.5
COc1ccc(/C=C2\CCn3c2nc2ccccc2c3=O)cc1OC	-1%	14%	-7.6	0.2%	-12%	-13%	-5.0
COc1ccc(C2CC(c3ccc([N+](=O)[O-])cc3)=NN2C(=O)c2ccccc2)cc1OC (stereo unspecified)	u	2%	2.3	0.1%	-15%	-2.4%	-6.2
CC(=O)Nc1c(C)nn(-c2ccc([N+](=O)[O-])cc2)c1C	-51%[inhibitor]	0%	3.3	-1.2%	16%	-0.5%	-1.9
CSC(SC)=C(C(C)=O)C(=O)c1ccc(C)cc1	-15%[15.4 µM]	6%	0.1	-1.4%	8%	1.7%	-2.7
CN(C)c1ccc(C=c2c3cc(O)ccc3n3c2cc(-c2ccccc2)[n+]3C)cc1	11%	x	x	-2.0%	-29%	2.5%	0.4

The list goes on:
SMILES	gsp agonist	Sfp PPTase inh	Menin MLL FP FL	PINK1 expr mod	gsp antagonist	ClpP mod	D2 agonist
CCOc1ccc(C2CC(c3cccc(C)c3)n3nc(N)nc3N2)cc1 (stereo unspecified)	u	-1%	2.0	0.4%	2%	-1.6%	-1.5
COc1ccc(C(CNC(=O)c2cc3ccccc3cc2O)N2CCOCC2)cc1 (stereo unspecified)	-2%[15.4 µM]	x	x	5.4%	u	x	-3.1
CC(=O)N(C(C)=O)c1c(N2CCOCC2)c2ccccc2oc1=O	-68%[inhibitor]	17%	6.0	3.1%[38.3 µM]	0%	-1.6%	-1.3
CCc1ccc(NC(=O)CCCNC(=O)Cn2cnc3sc(C)c(C)c3c2=O)cc1	8%[15.4 µM]	13%	2.0	6.9%	-17%	-15%	-1.6
N=c1n(CCc2ccccc2)c2ccccc2n1Cc1ccccc1F	-9%	50µM*	x	-1.0%	1%	-1.1%	-5.7
